AF4-AF9 inh: inhibitors of human MLL-AF4/AF9 interaction. P42568. AlphaScreen, biotin-AF4 peptide binding to FLAG-AF9. inhibition, % at 10 µM. 0.47% of 350,000 active;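 active = every replicate reaching a set inhibition limit, whatever the replicate mean, cut at about 25% in these data; inconclusive = mean inhibition reaches that limit but some replicates miss it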;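 also: 0% = plate neutral control median and 100% = total signal loss; the record names both 10 and 1 µM as test concentration; the first replicate is given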
Target sequence (P42568 whole entry, looked up): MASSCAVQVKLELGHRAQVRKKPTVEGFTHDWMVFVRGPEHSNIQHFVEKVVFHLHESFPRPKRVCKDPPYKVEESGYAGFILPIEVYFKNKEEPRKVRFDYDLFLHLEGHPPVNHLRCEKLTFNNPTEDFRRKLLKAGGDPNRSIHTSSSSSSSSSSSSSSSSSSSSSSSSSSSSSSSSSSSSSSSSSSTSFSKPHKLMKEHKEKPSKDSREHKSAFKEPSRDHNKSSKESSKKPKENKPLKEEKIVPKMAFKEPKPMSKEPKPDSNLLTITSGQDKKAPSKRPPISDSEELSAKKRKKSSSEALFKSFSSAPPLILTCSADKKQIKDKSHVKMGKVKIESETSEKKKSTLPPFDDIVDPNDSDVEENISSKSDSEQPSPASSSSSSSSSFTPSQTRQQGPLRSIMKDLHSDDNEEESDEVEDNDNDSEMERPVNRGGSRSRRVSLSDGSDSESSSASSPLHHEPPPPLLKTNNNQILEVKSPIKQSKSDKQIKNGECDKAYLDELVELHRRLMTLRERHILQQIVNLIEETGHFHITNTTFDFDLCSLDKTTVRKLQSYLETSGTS
E coli growth: blocks Escherichia coli growth | OD600, 23 h; active compounds read low | OD600 absorbance (concentration not given with the values) | 0.21% of 330,000 active;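 active = OD600 absorbance below the run mean of sample wells minus 3.6 SD, in any replicate, cut at about 0.56 in these data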;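 also: stock transfer was 300 nL into about 60 µL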
HNF4A DNA FP: change in binding of human HNF4 alpha to DNA; HNF4a-FITC DNA binding, fluorescence polarization, 1 h; activity change, % at 10 µM; 0.3% of 360,000 active; AID 1224865; in the data active = activity change above about 30%, passing the limit was not always enough;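 also: controls were the assay level and a saturating level of protein; the project sought stronger binding though the title names inhibitors; some compounds called inactive have numbers as strong as hits; positive values seem to mean higher polarization but the record does not say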
Target sequence (P41235 whole entry, looked up): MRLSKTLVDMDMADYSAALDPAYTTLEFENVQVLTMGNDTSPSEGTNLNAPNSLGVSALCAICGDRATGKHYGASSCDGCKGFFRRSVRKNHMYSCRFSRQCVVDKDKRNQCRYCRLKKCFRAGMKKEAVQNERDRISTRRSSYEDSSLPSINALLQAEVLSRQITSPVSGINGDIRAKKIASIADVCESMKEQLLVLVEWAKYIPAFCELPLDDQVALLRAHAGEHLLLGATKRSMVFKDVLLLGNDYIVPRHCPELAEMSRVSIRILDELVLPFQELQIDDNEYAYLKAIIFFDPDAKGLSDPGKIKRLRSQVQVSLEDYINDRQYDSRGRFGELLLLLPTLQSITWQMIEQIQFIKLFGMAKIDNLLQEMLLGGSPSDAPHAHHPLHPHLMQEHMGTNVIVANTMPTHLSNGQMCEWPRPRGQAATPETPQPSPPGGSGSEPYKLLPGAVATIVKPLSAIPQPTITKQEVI
Vif TR-FRET: inhibitors of Vif binding to APOBEC3G peptide, primary screen, biochemical, TR-FRET, GST-Vif 1-94, biotin-A3G peptide, dose response retest (AID 1117319); TR-FRET GST-Vif / biotin-A3G peptide binding; higher % means a stronger effect; test concentration not given here; strong numbers were not always called active; one-dose inhibition, %; IC50 in µM for titrated hits; 0.57% of 260,000 active;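 active = above the screen mean plus three standard deviations and confirmed in dose response; inconclusive = results disagree or hit not tested in dose response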;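 also: Vif residues 1-94 fused to GST binding biotinylated APOBEC3G peptide 110-148; 0% = full assay without inhibitor and 100% = GST in place of GST-Vif; retest series ran down from 100 µM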
UCH37 DUB inh: blocks the human deubiquitinase UCH37 | purified proteasome/UCH37, Ub-AMC cleavage fluorescence | inhibition, % (no concentration beside the values) | 0.33% of 330,000 active | AID 588478;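 active = mean of two replicates above 20%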;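 also: 0% = compound-free wells with enzyme and 100% = wells lacking proteasome; stock transfer was 100 nL into about 20 µL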
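Signal – fluorescence, ex 355 nm, em 460 nm · System – Proteasome-bound UCH37 · Input – 0.15 nM proteasome as dispensed · Timing – 30 min preincubation with enzyme, 25 min cleavage at room temperature · Read-out basis – percent inhibition of cleavage signal versus uninhibited and no-proteasome wells · Medium – Tris-HCl pH 7.4 with ATP-MgCl2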
RanGTP-Imp inh: disruptors of Ran-importin-beta complex formation – biochemical, FRET, CFP-Ran, YFP-importin-beta, homogeneous, primary screen; inhibition, % (concentration not given with the values); 1.1% of 300,000 active; AID 2216; cell-free CFP-Ran/YFP-importin-beta FRET ratio;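 active = most replicates above 15%; inconclusive = exactly half above 15%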;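 also: 0% = DMSO wells and 100% = Ran loaded with GDP instead of GTP; wells of about 40 µL received 100 nL stock; the first replicate is given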
FGF22 binding: binders of recombinant human FGF22 by thermal shift; Q9HCT0; SYPRO orange fluorescence; percent of sucrose octasulfate shift, DMSO zero; calls only at 9.99 µM; 1.5% of 340,000 active; AID 651658;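 active = melting point raised past a set limit in the mean and every replicate; inconclusive = no clear call; three in four hits are not shown here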
Active calls of the source: *; i = inactive; ? = inconclusive; · = no result given; + = active, no number; & = joins results of further samples; ! = repeats disagree.

SMILES	AF4-AF9 inh	E coli growth	HNF4A DNA FP	Vif TR-FRET	UCH37 DUB inh	RanGTP-Imp inh	FGF22 binding
Cc1cnc(C(=O)NCC(=O)Nc2ccccc2Br)cn1	-14.7	0.709	-7.0	24.5%	0.2	·	i
CC1CC(=O)c2cnc(NCC3CCCO3)nc2C1 (stereo not drawn)	·	0.678	-3.2	-2.4%	3.1	3.3	·
N/C(Cc1ccc([N+](=O)[O-])cc1)=N\OC(=O)c1ccccc1F	0.3	·	-2.8	-7.3%	·	2.5	i
CCC(C)NC(=O)C(=O)NCc1ccccn1 (stereo not drawn)	-0.9	0.677	2.2	?	1.8	-0.5	i
O=C(O)CSCC(=O)N1CCN(c2nc3cc(Cl)ccc3s2)CC1	-3.8	0.662	1.9	-7.4%	3.2	-3.7	i
CCCCNS(=O)(=O)c1ccc(NC(=O)C2CCCO2)cc1 (stereo not drawn)	·	0.694	0.3	·	0.0	2.1	·
COc1cc2c(cc1NC(=O)c1cc(-c3ccncc3)nc3ccc(C)cc13)oc1ccccc12	·	0.774	9.6	10.1%	0.5	-1.2	·
CCOC(=O)CNC(=O)N1CCCC(Cc2ccccc2)(C(=O)OCC)C1 (stereo not drawn)	-1.9	·	14.1	6.4%	·	4.0	i
O=C(c1ccccc1)c1ccncc1	·	0.696	-2.4	-4.9%	0.3	4.6	·
O=C1CCC[C@@H]2CC(N3CCCCC3)C[C@@H]3CCN1[C@H]23 (stereo partly drawn)	-7.8	0.715	-1.5	2.0%	-0.2	·	i
COCCCNC(=O)C[C@H]1C[C@H](C(=O)N(C(C)C)C(C)C)[C@@]2(C)c3[nH]c4cc(-c5ccco5)ccc4c3CCN2C1=O	8.7	0.691	3.8	-2.9%	-27.4	·	i
O=S(=O)(Nc1nc2ccccc2nc1-[n+]1ccccc1)c1ccc(Cl)cc1	·	0.675	-1.9	9.6%	1.5	0.2	·
CC1=NN(c2nc(-c3ccc(C)cc3)cs2)C(=O)C1N=Nc1ccc(C(N)=O)cc1 (stereo not drawn)	5.6	·	7.9	-4.3%	·	4.1	i
C[C@H](CO)N1C[C@H](C)[C@@H](CN(C)S(=O)(=O)c2ccccc2)Oc2ccc(NS(=O)(=O)c3cn(C)cn3)cc2C1=O	-7.3&-1.3	0.701	-0.5	-5.0%	14.1	·	+!
Cc1ccc(-c2nn(CC(=O)Nc3cccnc3)c(=O)c3ccccc23)cc1	·	0.732	2.5	17.3%	3.1	-2.1	·
O=C(O)C1C2C=CC(C2)C1C(=O)NCCc1ccncc1 (stereo not drawn)	·	0.662	0.7	12.4%	-3.8	3.0	·
O=C(CSc1nc2ccccc2c(=O)[nH]1)c1ccc(O)cc1O	-2.5	0.637	-0.4	-7.1%	7.4	3.0	i
CCNC(=O)c1ccc(NS(=O)(=O)c2ccccc2)cc1	·	0.659	-2.9	-5.5%	3.2	1.5	·
CCOC(=O)CNC(=S)N(Cc1ccccc1)Cc1ccccc1F	-2.4	0.688	3.4	0.4%	2.8	-3.2	·
COc1ccc(C2NC(=O)NC(c3ccccc3)=C2c2nc3ccccc3s2)cc1 (stereo not drawn)	9.7	0.672	0.7	5.4%	-18.4	3.9	i
Cn1cc(CN2C[C@]3(C)C[C@H]2CC(C)(C)C3)c(-c2ccc3c(c2)OCCO3)n1	-1.9	0.696	-3.6	?	-0.4	3.1	i
COc1ccccc1OCCNC(=O)c1cccc(S(=O)(=O)N2CCN(C)CC2)c1	12.6	0.724	2.6	·	2.4	1.0	i
O=C1Nc2ccc(Br)cc2/C1=C/C1CC=CCC1 (stereo not drawn)	6.6	0.724	4.2	5.3%	1.9	-1.4	i
COc1cccc(NC(=S)N(CCCN2CCOCC2)Cc2cn(C)c3ccccc23)c1	·	0.651	3.8	8.7%	0.4	3.2	·
CC(NC(=O)COC(=O)c1ccc2ccccc2n1)C1CC2CCC1C2 (stereo not drawn)	-4.2	0.652	2.8	-4.0%	2.8	-2.2	i
Cc1ccc(NCc2n[nH]c(=S)n2-c2ccccc2)c(C)c1	-3.0	0.667	3.6	5.4%	3.1	6.6	i
NNc1cc([N+](=O)[O-])cc2c1C(=O)N(Cc1ccccc1)S2=O (stereo not drawn)	-8.1	·	-9.0	24.7%	·	?	i
COc1ccc(CCNC(=O)Cn2c(=O)n(CCCC(=O)NCc3ccco3)c(=O)c3sccc32)cc1OC	1.3	0.67	0.6	·	0.6	2.3	i
O=C(CO)c1c[nH]c2ccccc12	-2.0	·	2.0	·	·	·	i
CC[C@]12C(=O)N(C)C[C@H]([C@@H]3C(=O)N(C)C(=O)[C@@H]31)N2C(=O)c1ccc(C(F)(F)F)cc1	·	·	5.0	·	1.7	·	i
CC1CN(C(=O)c2cc3cc(F)ccc3[nH]2)CC(C)O1 (stereo not drawn)	-1.1	0.681	2.4	-8.0%	0.1	-1.9	i
O=C(Cn1cnc2ccccc21)OCC(=O)N1CCCCC1	-1.3	0.713	-5.1	7.9%	2.6	·	i
Cn1nc(-c2ccc(C(=O)Nc3cccnc3)cc2)c2ccccc2c1=O	·	0.667	-2.3	6.8%	0.6	-4.0	·
Cc1ccc(S(=O)(=O)N(C)c2ccc(OCC(=O)Nc3nnc(C4CC4)s3)cc2)cc1	1.0	0.719	4.2	·	4.4	-2.9	i
O=c1[nH]cnc2sc3c(c12)CCCCC3	-2.6	·	0.4	-11.9%	·	3.4	i
COc1cc(NC(=O)c2cccs2)c(C(=O)OCC(=O)c2cc(C)n(-c3ccc(F)cc3)c2C)cc1OC	6.8	0.658	3.9	1.4%	-73.8	4.0	i
Cn1nc(C(C)(C)C)cc1C(=O)N1CCCC(c2cc(C(=O)NCc3ccccc3)no2)C1 (stereo not drawn)	2.1	·	-5.3	·	·	·	i
Cc1ccc(NC(=O)Cn2nc(C(=O)O)c3ccccc3c2=O)cc1S(=O)(=O)N1CCOCC1	1.0	0.657	2.2	-5.6%	4.2	·	i
COc1ccc(NC(=O)C2C3C=CC4(O3)C2C(=O)N(CCN2CCCCC2C)C4C(=O)NC2CCCC(C)C2C)cc1 (stereo not drawn)	-0.2	0.667	1.2	·	3.5	3.1	i
COc1ccccc1C(CNC(=O)c1cccc(S(=O)(=O)Nc2ccc(F)cc2)c1)N(C)C (stereo not drawn)	3.9	0.675	0.6	-5.4%	0.7	·	i
Cc1ccc(-c2nnn(CC(=O)N(CC3CCCO3)C(C(=O)NC3CCCC3)c3ccc(F)cc3)n2)o1 (stereo not drawn)	·	0.778	-0.8	-1.9%	1.2	-1.6	·
O=C(NCc1cccnc1)c1ccc2c(=O)n(CCCN3CCCC3=O)c(=S)[nH]c2c1	·	0.692	-0.5	5.1%	4.9	-2.4	·
O=C(COc1ccc(-n2cnnn2)cc1)NC(=O)NCc1ccccc1	·	0.682	-0.8	2.0%	1.3	2.2	·
Cc1ccc(C(=O)C(C)OC(=O)Cc2n[nH]c(=O)c3ccccc23)cc1 (stereo not drawn)	1.8	0.663	-0.7	-0.6%	-1.5	-3.5	i
COc1ccccc1NC(=O)/C(=C\c1cccnc1)NC(=O)c1ccc(C)cc1	-1.8	·	-0.1	·	·	1.6	i
Cc1[nH]c(-c2ccc(F)cc2)cc1C(=O)N1CCN(c2cccc(Cl)c2)CC1	5.2	0.732	0.7	-11.7%	4.9	?	i
Cn1c(=O)c2[nH]c(CNc3ccc(C(=O)O)cc3)nc2n(C)c1=O	1.0	·	3.3	6.2%	·	6.3	i
COc1ccc(NS(=O)(=O)c2ccc(NS(=O)(=O)c3ccc(SC)cc3)cc2)c(OC)c1	·	0.654	-2.2	5.0%	1.6	4.5	·
CN(C(=O)COC(=O)C(C)(C)Oc1ccc(Cl)cc1)c1c(N)n(Cc2ccccc2)c(=O)[nH]c1=O	-8.1	0.66	-0.5	3.4%	3.2	4.1	i
COc1cc2c3nnc(-c4ccccc4)c-3cn(Cc3ccccc3F)c2cc1OC	·	0.746	·	11.9%	-131.2	·	·
The list continues.
SMILES	AF4-AF9 inh	E coli growth	HNF4A DNA FP	Vif TR-FRET	UCH37 DUB inh	RanGTP-Imp inh	FGF22 binding
Cc1ccc2c(c1)N(C(=O)CCC(=O)NCCCN1CCC(Cc3ccccc3)CC1)CCO2	-12.7	0.73	0.1	·	1.8	-0.1	i
CN(CC(=O)Nc1cccc(F)c1)C(=O)CC1CCCC1	-0.3	0.568	0.0	1.1%	1.6	·	i
FC(F)(F)c1ccccc1NC(=S)NN1CCOCC1	·	0.695	4.0	-0.6%	4.2	-2.9	·
Cc1ccc(N(CC(=O)NC2CCCCC2)S(=O)(=O)c2c(C)nn(C)c2C)cc1	0.4	0.703	0.3	·	-1.2	-0.6	i
N#Cc1ccc(NC(=S)NC(=O)CCc2ccc(S(=O)(=O)N3CCOCC3)cc2)cc1	0.4	0.663	1.5	-10.3%	3.7	1.3	i
CC(C)c1ccc(-n2ccnc2SCC(=O)O)cc1	0.3	0.689	0.2	0.2%	2.0	1.7	i
CC(=O)N1c2ccc(S(=O)(=O)NCC3CCC(C(=O)Nc4ccc(C)cn4)CC3)cc2CC1C (stereo not drawn)	3.0	0.675	3.7	·	0.9	-1.7	i
CCCCNC(=O)NS(=O)(=O)c1ccc(C(=O)OC)o1	·	0.789	3.9	-2.3%	-0.6	-0.9	·
COc1ccc(OC)c(C(=O)NC(CC(N)=O)c2ccc(N3CCN(c4ccc(F)cc4)CC3)c([N+](=O)[O-])c2)c1 (stereo not drawn)	-1.1	0.664	-3.7	·	-0.1	3.3	i
Cc1ccc(SCC(=O)Nc2nnc(-c3ccco3)o2)cc1	-2.1	0.666	1.5	6.6%	1.7	-2.7	i

Compound profiles (already shown). Values in the order: AF4-AF9 inh | E coli growth | HNF4A DNA FP | Vif TR-FRET | UCH37 DUB inh | RanGTP-Imp inh | FGF22 binding
CC(C)c1ccc(-n2ccnc2SCC(=O)O)cc1 across the screens: 0.3 | 0.689 | 0.2 | 0.2% | 2.0 | 1.7 | i
FC(F)(F)c1ccccc1NC(=S)NN1CCOCC1 across the screens: · | 0.695 | 4.0 | -0.6% | 4.2 | -2.9 | ·

Additional results.
SMILES	AF4-AF9 inh	E coli growth	HNF4A DNA FP	Vif TR-FRET	UCH37 DUB inh	RanGTP-Imp inh	FGF22 binding
Cc1ccc(SCCNC(=O)/C=C/c2ccc(Cl)cc2)cc1	·	·	-1.6	·	0.8	1.9	·
CCC(C)NC(=O)c1ccc(N2CC3CC(C2)c2cccc(=O)n2C3)c(NC(=O)c2c(F)cccc2F)c1 (stereo not drawn)	2.4	·	2.9	5.5%	·	·	i
O=C1CC/C=C\C[C@@H](CC(=O)N(CCO)Cc2ccccc2)C(=O)N[C@H](Cc2c[nH]c3ccccc23)CO1	-24.6	·	-3.5	·	2.5	·	i
O=C(NC(Sc1ccc(Cl)cc1)C(=O)O)c1ccccc1 (stereo not drawn)	-1.6	·	-2.3	5.3%	·	·	i
CC(Sc1nnc2c(n1)C1(C)CCC2C1(C)C)C(=O)Nc1ccccc1 (stereo not drawn)	·	0.736	-1.2	-1.9%	2.3	6.5	·
CN(CCc1ccccn1)S(=O)(=O)c1ccccc1F	·	0.733	-1.2	20.6%	6.8	1.1	·
Cc1ccc(S(=O)(=O)N2CCC(C(=O)OCC(=O)NCc3ccco3)CC2)cc1C	2.3	0.569	4.2	7.7%	1.4	4.5	i
COc1cccc(CC(=O)OCC(=O)NC(=O)c2ccc(OC(F)F)cc2)c1	4.7	0.631	-0.1	-5.7%	4.2	2.3	i
CC(C)(C)SCCNC(=O)CN(c1ccccc1)S(=O)(=O)c1ccc(F)cc1	0.2	0.72	5.2	-6.1%	6.6	3.5	i
CN(C)CCCNCC(=O)Nc1ccccc1N1CCOCC1	·	0.661	-0.3	?	1.9	2.4	·
O=[N+]([O-])c1cc2c(cc1/C=N/n1c(-c3ccccc3)n[nH]c1=S)OCO2	·	·	-0.1	9.4%	·	-1.4	·
COc1ccc(C(=O)C(=O)N2CCN(c3ccccc3F)CC2)cc1	2.2	·	1.8	·	·	·	i

These rows are one share of the data; count on the stated rates, not on these rows.
